Source: PubChem BioAssay (National Center for Advancing Translational Sciences (NCATS))
PI4K2A inh = inhibitors of human PI4K2A; Q9BTU6; purified PI4K2A, ADP-Glo luminescence, 1 h; hits give low values; activity change, negative = inhibition, % at 76.9 µM; 420,000 compounds, 0.13% hits; AID 1346378; in the data active = activity change below about -50%; inconclusive = mostly about -30% to -49%;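 also: -100% = wells without enzyme as full effect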
Target sequence (Q9BTU6 whole entry, looked up): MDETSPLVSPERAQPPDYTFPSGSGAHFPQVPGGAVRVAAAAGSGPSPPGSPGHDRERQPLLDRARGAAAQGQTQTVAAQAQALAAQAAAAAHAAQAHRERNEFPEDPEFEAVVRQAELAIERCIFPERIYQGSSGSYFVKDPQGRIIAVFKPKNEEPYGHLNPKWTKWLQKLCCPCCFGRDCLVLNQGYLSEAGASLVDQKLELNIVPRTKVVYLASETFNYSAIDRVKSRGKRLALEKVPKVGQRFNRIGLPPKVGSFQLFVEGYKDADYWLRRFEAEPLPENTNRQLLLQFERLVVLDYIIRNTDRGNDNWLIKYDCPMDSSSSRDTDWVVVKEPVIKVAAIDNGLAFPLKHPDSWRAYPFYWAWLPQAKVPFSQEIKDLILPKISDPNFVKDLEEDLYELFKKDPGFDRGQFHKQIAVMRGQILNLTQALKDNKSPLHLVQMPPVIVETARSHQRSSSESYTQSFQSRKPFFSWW
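ADP-Glo luminescence measured ADP generated by PI4K2A enzyme (4 ug/mL before mixing) with 1.2 mM PI substrate (pre-mix) and 300 microM ATP (pre-mix). Tris pH7.5 buffer with MgCl2, Triton X-100; 1 h reaction at ambient temperature.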
ERG Ets-DNA blk = ERG Ets/DNA interaction inhibition; fluorescence polarization, His-ERG Ets domain / labelled DNA; AID 624246; P11308; 370,000 compounds, 0.028% hits; Potency, µM (series often up to 76.9 µM), inactives show at the top dose FP activity, negative = inhibition, hits mostly inhibitors; active = well fitted inhibition curve with a large enough effect in the polarisation, with a control signal flat; inconclusive = small, poorly fitted or top-dose-only effect, or effect the other way, or a change in a side signal; inactive = no such curve, though single readings can be large or run the other way; the % refers to the polarisation;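 also: polarization taken with two DNA probes labelled with fluorescein and Texas red; potency is read from the fitted curve at half-maximal effect; % of control where 0% means no effect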
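His-tagged ERG Ets domain (1 uM in the protein solution; 300mM KCl, 50mM Tris-HCl, 1mM EDTA, 1mM DTT, pH 7.5) received compound, then a probe mix of 5 nM fluorescein-DNA and 100nM Texas-615-DNA. Fluorescence polarization was read for both dyes.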
12-LOX inh = inhibitors of human 12S-lipoxygenase ALOX12. P18054. purified 12hLO, xylenol orange hydroperoxide absorbance. Potency, µM (top dose mostly 108 µM), for inactives: top-dose activity change, negative = inhibition, usual class: inhibitors. 580,000 compounds, 1.1% hits; also: potency is read from the fitted curve at half-maximal effect; % is scaled to controls: 0 for no effect and ±100 for the full control effect
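Purified human 12hLO (150 nM final) in 25 mM Hepes, 0.01% Triton X-100, pH 7.0 was preincubated 15 min at room temperature with compound. Then 40 uM arachidonic acid was added, 30 min. Hydroperoxide was read by Fe-XO absorbance ratio 573/405 nm.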
RGS4 inh = human RGS4 inhibition. 390,000 compounds, 0.039% hits. AID 504845. Transcreener GDP fluorescence polarization, RGS4-accelerated GTP hydrolysis. Potency, µM (top dose mostly 114 µM), inactives show at the highest dose activity change, negative = inhibition, actives largely listed as inhibitors; also: potency is read from the fitted curve at half-maximal effect; % is scaled to controls: 0 for no effect and ±100 for the full control effect; nearly all actives have a fitted effect of over 75% in size; some results filed as inactive show a strong effect at the top dose
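MLSMR compounds (23 nl, pin-transferred) preincubated 10 min at room temperature with a 500nM (2x) first reagent, then RGS4 at 900nM (2x) plus Transcreener GDP mix added; fluorescence polarization (620/688 nm) read before and after 90 min at 30 °C.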
GLS inh = inhibitors of human glutaminase (GLS); O94925; GLS enzymatic activity, qHTS titration; Potency, µM (top dose mostly 45.5 µM), for the others: at the top dose activity change, negative = inhibition, hits mostly inhibitors; 410,000 compounds, 0.21% hits; AID 624170; also: potency is read from the fitted curve at half-maximal effect; % is scaled to controls: 0 for no effect and ±100 for the full control effect
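hKGA; 45 mM KH2PO4 pH 8.2 + 0.02% Tween-20; cpd via pin tool; 1 mM Gln soln; GluOx/HRP/Amplex Red; RT 30 min; fluor. t0 & final.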
JMJD2A Tudor = inhibitors of human JMJD2A Tudor domain. O75164. AlphaScreen JMJD2A-Tudor / H3K4me3 peptide binding. Potency, µM (titrated, usually from 114 µM), inactives show top-dose activity change, negative = inhibition, actives largely listed as inhibitors. 390,000 compounds, 4.4% hits. AID 504339; also: potency is read from the fitted curve at half-maximal effect; % is scaled to controls: 0 for no effect and ±100 for the full control effect; nearly all actives have a fitted effect of over 50% in size
G9a block = G9a (human) methyltransferase inhibition | AID 504332 | Potency, µM (titrated, usually from 102 µM), inactives show at the highest dose activity, negative = inhibition, most hits filed as inhibitors | Q96KQ7 | G9a H3K9 monomethylation, AlphaScreen, 2 h | 350,000 compounds, 8.8% hits; also: potency is read from the fitted curve at half-maximal effect; % is scaled to controls: 0 for no effect and ±100 for the full control effect; nearly all actives have a fitted effect of over 75% in size
Target sequence (Q96KQ7 913-1193 limits assumed): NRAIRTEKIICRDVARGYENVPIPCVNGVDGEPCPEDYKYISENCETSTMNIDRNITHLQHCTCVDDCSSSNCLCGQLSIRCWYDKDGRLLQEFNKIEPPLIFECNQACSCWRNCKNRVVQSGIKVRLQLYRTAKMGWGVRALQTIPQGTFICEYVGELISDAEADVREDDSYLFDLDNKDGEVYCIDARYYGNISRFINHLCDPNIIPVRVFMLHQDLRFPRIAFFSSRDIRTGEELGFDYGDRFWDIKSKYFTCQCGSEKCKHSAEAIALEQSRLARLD
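AlphaScreen read-out: biotin-H3K9 peptide (500 nM) methylation by 20 nM enzyme with 20 uM SAM, 2 h at room temperature after 15 min compound preincubation; anti-monomethyl H3K9 antibody plus donor/acceptor beads, 10 min dark.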
HP1b chromo inh = blocks HP1-beta chromodomain binding to methylated histone tails; AlphaScreen HP1-beta / biotin-H3K9me3 peptide binding; Potency, µM (doses to about 114 µM), for inactives: at the highest dose activity change, negative = inhibition, most hits filed as inhibitors; 390,000 compounds, 0.56% hits; AID 540317; also: potency is read from the fitted curve at half-maximal effect; nearly all actives have a fitted effect of over 70% in size; inactives centre near 23
Target sequence (P83916 whole entry, looked up): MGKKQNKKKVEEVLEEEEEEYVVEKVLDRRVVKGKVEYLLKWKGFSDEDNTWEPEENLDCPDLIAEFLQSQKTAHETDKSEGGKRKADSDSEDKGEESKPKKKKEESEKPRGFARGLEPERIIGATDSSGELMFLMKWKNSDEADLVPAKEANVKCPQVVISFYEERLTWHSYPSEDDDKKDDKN
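AlphaScreen: HP1-beta (50 nM) preformed 30 min with biotin-H3(1-18)K9me3 peptide (50 nM) in PBS pH 7.4, 0.01% Tween-20. Compound added for 30 min at RT, then streptavidin donor/nickel chelate acceptor beads (10 ug/mL) for 30 min.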
* marks the source's active call; other numbers are inactive results; ? = inconclusive; . = no result given; & = joins results of further samples; [ ] = remark or other dose. Unless noted, calls follow the shape of the dose curve; as a rule, active = well fitted curve in the direction sought with a large enough effect; inconclusive = small, poorly fitted or top-dose-only effect, or another doubt; inactive = no such curve, though single readings can be large; an effect the other way counts as inactive or inconclusive. The list is partial. The share of hits here may be higher or lower than overall.

structure,HP1b chromo inh,RGS4 inh,PI4K2A inh,GLS inh,ERG Ets-DNA blk,G9a block,JMJD2A Tudor,12-LOX inh
Cc1cc2ccccc2n1CCNC(=O)c1ccc(S(=O)(=O)N2CCOCC2)cc1,15%,2%,-2,11%,.,?,-33%,?
COc1ccc(S(=O)(=O)N(n2c(C)nnc2-n2nc(C)cc2C)S(=O)(=O)c2ccc(OC)cc2)cc1,9%,9%,9,2%,-6%,25µM*,-31%,.
Cn1c(SCC(=O)c2ccc3c(c2)OCO3)nnc1-c1ccccn1,24%,-2%,-7,12%,2%,-22%[59 µM],-21%,472%[activator]
Cc1cccc2sc(N(CCN(C)C)C(=O)c3ccc4c(c3)OCCO4)nc12,0%[57 µM],4%,0,-11%,-11%,?,?,?
COc1ccccc1CC(=O)Nc1ccc([N+](=O)[O-])cc1OC,?,-30%,4,3%,-2%,-8%[59 µM],-26%,-22%
CN(C)c1cc2c(cc1NS(=O)(=O)c1ccccc1)n(C)c(=O)n2C,-22%&-7%,0%&-3%,2&-4,14%&-3%,4%&2%,35µM*,-17%&-32%,?
N#Cc1nc(-c2ccco2)oc1N1CCC(Cc2ccccc2)CC1,-42%,14%,-1,-17%,3%,28µM*,?,8%
Cc1nc(NS(=O)(=O)c2ccccc2)sc1NC(=O)Nc1ccccc1,6%,-6%,-3,6%,5%,?,-25%,?
CCC(Sc1nncn2c1cc1occc12)C(=O)Nc1ccc(C)c(Cl)c1 (stereo not drawn),14%,-22%,1,-2%,4%,?,-23%,10%
COc1cccc(-c2csc(NNC(=O)c3cccs3)n2)c1,-8%,-7%,-2,16%,-2%,-49%,?,74%[activator]
O=C(CN1CCCc2ccccc21)Nc1ccccc1[N+](=O)[O-],?,15%,0,2%,-2%,18µM*,?,3%
Cc1cn(-c2ccccc2)c(C)c1/C=N\Nc1nc(N2CCOCC2)nc(N2CCOCC2)n1,-8%,-10%,-6,10%,-7%,?,?,3%
O=C(c1ccccc1)c1ccc2c(c1)OCCOCCOCCOCCO2,52%[activator],-2%,-3,0%,-5%,.,1%,441%[activator]
Cc1cccc(OCc2ccc(-c3nc(C#N)c(NCCN(C)C)o3)o2)c1,-20%,-11%,-1,7%,0%,?,?,0%
O=C(CC1C(=O)NCCN1Cc1ccoc1)NCCCn1ncc2ccccc21 (stereo not drawn),40%[activator],-25%,-2,6%,131%[activator][15.4 µM],22µM*,-6%,?
CC(=O)c1c(C)[nH]c(C(=O)/C(C#N)=C/c2cccc(C)c2)c1C,-21%,2%,3,28%,16%,?,-31%,?
Cc1cccc(CSC2=NCCN2C(=O)c2ccc(Br)o2)c1,31%,12%,4,-4%,-3%,?,23%,-9%
CN1CCN(C(=S)c2cn(Cc3cccc(F)c3)c3ccccc23)CC1,-7%,7%,-1,6%,7%,56µM*,?,-11%
O=C(/C=C/c1ccco1)OCc1nnc(-c2ccc(Cl)cc2)o1,?,-41%,3,-5%,11%,45µM*,-31%,45µM*
COc1ccc(OCCCC(=O)Nc2ncn[nH]2)cc1,34%,-22%,2,11%,5%,?,1%,1%
COc1ccccc1-c1nnc(NC(=O)CCS(=O)(=O)c2ccccc2)o1,27%,7%,-2,-2%,3%,?,?,-28%
Cc1cccc(NC(=O)NCc2ccc3c(c2)OCO3)c1C,15%,-7%,2,13%,1%,13%,6%,-2%
CCCC(C(=O)NC1CCCC1)N(CCCN1CCOCC1)C(=O)c1snc(C(N)=O)c1N (stereo not drawn),21%,32%,2,-1%,0%,13%[59 µM],-10%,-29%
Cn1cccc1Cc1nnc(SCC(=O)Nc2ccc(F)cc2)n1CCc1ccccc1,14%,-5%,-7,5%,1%,45µM*,?,439%[activator]
Cc1ccc(C)c(N2CCN(C(=O)c3ccc4nc(N5CCOCC5)sc4c3)CC2)c1,1%,7%,1,10%,-8%,-9%[0.0925 µM],-34%,8%
COC(=O)C1=C(C)NC(=O)NC1c1cc(Cl)ccc1OC (stereo not drawn),22%,19%,5,4%,2%,12%[59 µM],-27%,3%
Cn1c(=O)c2c(ncn2Cc2ccc(Cl)c(Cl)c2)n(C)c1=O,24%,-16%,4,-3%,1%,5%[59 µM],-4%,-2%&-1%
Cc1ccc(NCc2nnc(SCC(N)=O)o2)c(C)c1,6%,-31%,1,6%,6%,11µM*,-11%,1%
Nc1nc(-c2ccc(Oc3ccccc3)cc2)cs1,-12%,-29%,0,20%,-4%,?,?,0%
Cc1ccc(-c2cn(-c3ccccc3)c(SCC(=O)NC3CCS(=O)(=O)C3)n2)cc1C (stereo not drawn),-33%,-39%,9,-2%,1%,2µM*,?,-1%
N#Cc1nc(COc2ccc(F)cc2)oc1N1CCCC1,-37%,-42%,7,-6%,-6%,?,-35%,0%&-17%
Cc1cccc(NC(=O)c2sc3ncn(CC(=O)N4CCN(c5ccccn5)CC4)c(=O)c3c2C)c1,20%,10%,7,-16%,7%,-15%,-15%,14%
O=[N+]([O-])c1ccc(C2CC(c3ccccc3)=Nc3ccccc3S2)cc1 (stereo not drawn),-10%,?,-1,-1%,11%,40µM*,?,?
COc1cc(NC(=O)CCn2c(-c3ccccc3)cc(C(C)=O)c2C)cc(OC)c1,-37%,5%,2,-9%,-13%,?,?,-18%
COC(=O)c1cc2ccsc2n1Cc1cccc(F)c1,190%[activator],-11%,8,-16%,-5%,26%[59 µM],134%[activator],0%
COCc1cc(C)nc(N/N=C/c2ccc(-c3cc(C(=O)O)ccc3Cl)o2)c1C#N,.,.,.,.,.,.,.,?
CCN1CCN(CC(=O)Nc2cc(C)c(C)cc2[N+](=O)[O-])CC1,57%[activator],-6%[11.4 µM],4,-11%,15%,?,-2%,-7%
CC(=O)c1ccc(NC(=O)C2CC(c3ccc(F)cc3)=NO2)cc1 (stereo not drawn),19%,-1%,1,-11%,-11%,10%,-11%,?
COCCn1nnnc1C(c1cc2c(C)cc(C)cc2[nH]c1=O)N1CCCCCC1 (stereo not drawn),28%,-16%,-2,-6%,.,-45%[0.0925 µM],-27%,.
CC(=O)c1cc(-c2ccccc2)n(CCC(=O)NC(C)(C)C)c1C,15%,-17%,0,-13%,?,-55%,-10%,.
O=C(c1cc(S(=O)(=O)N2CCCC2)c[nH]1)N1CCN(c2cccc(Cl)c2)CC1,0%,-10%,-14,-10%,-2%,-27%[59 µM],?,-6%
Cc1cc(=O)[nH]c(-n2nc(C)cc2C)n1,28%,25%,-16,11%,7%,.,?,4%
N#Cc1nc(Cc2cccc3ccccc23)oc1NCc1ccco1,-36%,-32%,4,1%,4%,40µM*,?,-36%
CC1CCC/C(=N\NC(=S)NCc2ccccc2)C1 (stereo not drawn),-22%,3%,8,14%,-3%,8.9µM*,?,-10%
CC(NC(=O)c1cc(-c2ccccc2)on1)c1ccccc1 (stereo not drawn),48%,-11%,1,1%,0%,-17%,-5%,14%
COc1cc(-c2nc3ccccn3c2NCc2ccccc2)ccc1SC1CCCCC1,31%,4%,-5,21%,4%,-32%[12.7 µM],?,.
CC1CCN(CC(=O)Nc2ccc(Cl)cc2[N+](=O)[O-])CC1,?,-14%,2,-10%,-18%,?,?,-6%
CCOC(=O)c1c(NC2=NS(=O)(=O)c3ccccc32)sc2c1CCC(C)C2 (stereo not drawn),28%,4%,2,5%,6%,-6%[59 µM],-11%,-15%
Cc1ccc2c(c1)C1CN(C)CCC1N2C(=S)NC(=O)c1ccc(Br)cc1 (stereo not drawn),-20%,-27%,0,12%,1%,22µM*,?,?
CCN(CC)c1ccc(/C=N/N2C(=O)c3ccccc3C2=O)cc1,-24%,-14%,4,9%,-2%,-17%[59 µM],-23%[57.1 µM],4%

Further results follow.
structure,HP1b chromo inh,RGS4 inh,PI4K2A inh,GLS inh,ERG Ets-DNA blk,G9a block,JMJD2A Tudor,12-LOX inh
COc1ccc(S(=O)(=O)Nc2cc3c(cc2N2CCOCC2)n(C)c(=O)n3C)cc1,47%[activator],-35%,1,25%,-2%,-9%[59 µM],-18%,-1%
CC(=O)Nc1ccc(NC(=O)CSc2nnc(-c3cccs3)n2C)cc1,5%,19%,4,1%,-7%,-9%,0%,-1%
COc1cc(CN2CCCCCC2)cc(OC)c1O,-1%,10%,4,22%,8%,-36%[0.501 µM],-100%,?
COc1ccc(CCNC(=O)CSc2nc3nc(C)c(Cc4ccc(C)cc4)c(C)n3n2)cc1OC,-8%,3%,5,0%,-7%,1%[59 µM],-15%,-3%
CCOC(=O)N1CCN(Cc2nc(N)nc(Nc3ccc(Oc4ccccc4)cc3)n2)CC1,25%,-29%,8,-13%,-1%,32µM*,?,24%
O=C(CN1C(=O)S/C(=C\c2ccc(Cl)cc2)C1=O)NCCCn1ccnc1,23%,-10%,1,0%,-5%,2%[0.0925 µM],?,58%[activator]
COc1ccc(C(c2oc(CO)cc(=O)c2O)c2oc(CO)cc(=O)c2O)cc1,41%[activator],8%,-1,15%,3%,14µM*,-18%,-19%
Cn1cccc1Cc1nnc(SCC(=O)Nc2ccc3c(c2)OCO3)n1-c1ccc(F)cc1,-12%,-1%,-8,5%,7%,45µM*,-32%,478%[activator]
CCOC(=O)c1c(C)[nH]c(C)c1S(=O)(=O)N1CCN(c2cccc(C)c2)C(C)C1 (stereo not drawn),10%,-4%,2,15%,8%,79µM*,-19%,-6%
